E coli growth = E. coli growth inhibition; Escherichia coli growth, OD600, 23 h; stronger effect = lower value; OD600 absorbance (test concentration not listed); 330,000 compounds, 0.21% hits;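 active = OD600 absorbance below the run mean of sample wells minus 3.6 SD, in any replicate, cut at about 0.56 in these data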;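 also: stock transfer was 300 nL into about 60 µL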
UCH37 inh = inhibitors of human deubiquitinating enzyme UCH37 | Q9Y5K5 | purified proteasome/UCH37, Ub-AMC cleavage fluorescence | inhibition, % (test concentration not listed) | 330,000 compounds, 0.33% hits | AID 588478;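 active = mean of two replicates above 20%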;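 also: 0% = compound-free wells with enzyme and 100% = wells lacking proteasome; stock transfer was 100 nL into about 20 µL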
Target sequence (Q9Y5K5 whole entry, looked up): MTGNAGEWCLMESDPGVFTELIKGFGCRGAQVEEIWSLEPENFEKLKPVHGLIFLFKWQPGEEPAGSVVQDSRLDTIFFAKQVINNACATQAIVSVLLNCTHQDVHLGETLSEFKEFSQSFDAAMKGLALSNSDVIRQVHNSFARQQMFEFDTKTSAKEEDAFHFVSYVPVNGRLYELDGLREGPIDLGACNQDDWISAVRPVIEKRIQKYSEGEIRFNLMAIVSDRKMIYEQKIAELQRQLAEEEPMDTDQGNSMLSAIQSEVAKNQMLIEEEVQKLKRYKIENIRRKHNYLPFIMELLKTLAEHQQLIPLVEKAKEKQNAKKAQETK
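system = Proteasome-associated human UCH37 deubiquitinase | amount = 0.15 nM proteasome as dispensed | medium = pH 7.4 Tris-HCl (50 mM) with ovalbumin, ATP-MgCl2, DTT | incubation = 30 min preincubation with enzyme, 25 min cleavage at room temperature | detection = AMC fluorescence 355/460 nm | read-out basis = percent inhibition | controls = no-proteasome and no-compound wells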
Numbers without * were called inactive. These rows are one share of the data; count on the stated rates, not on these rows.

Each structure is followed by: E coli growth	UCH37 inh
COc1ccc(CC(=O)NCC(=O)NN=Cc2ccc(C)o2)cc1
  0.7	3.0
Nc1nonc1-n1nnc(C(=O)NN=Cc2cccc(Cl)c2)c1CSc1ccc(Cl)cc1
  0.53	3.0
COc1cc(C=NNC(=O)Cc2c[nH]c3ccccc23)cc(OC)c1OC
  0.69	1.7
O=C(NN=C/C=C/c1ccc2c(c1)OCO2)c1cccnc1
  0.66	4.7
CC(=NNc1nccnc1Cl)c1ccc([N+](=O)[O-])cc1
  0.77	4.2
CC(=NNS(=O)(=O)c1ccc(C)cc1)c1cc2ccccc2oc1=O
  0.73	2.6
CCCOc1ccc(C=NNc2cc(N3CCOCC3)ncn2)c(O)c1
  0.66	-1.2
CC(C)Oc1ccc(CCC(=O)NN=Cc2ccc3c(c2)OCO3)cc1
  0.71	3.4
CC(=O)N1CCC2(CC1)CC(=NNC(=S)Nc1ccccc1C)c1cc(O)ccc1O2
  0.68	-87
Cc1nonc1C(=O)NN=Cc1ccccc1
  0.67	0.9
O=C(COc1ccc(Cl)cc1Cl)NN=Cc1ccc(OC2OC(CO)C(O)C(O)C2O)cc1 (centres undefined)
  0.65	1.3
COc1ccc(C(C)=NNC(=O)CNC(=O)/C=C\c2ccccc2OC)c(OC)c1
  0.72	-13
COc1ccc(C=NOCC(=O)Nc2nc3ccccc3s2)cc1
  0.64	1.4
O=C(CCNC(=O)c1ccccc1Cl)NN=Cc1ccc(O)cc1
  0.69	0.6
CCOc1cc(C=NNC(=O)c2ccc(CN3CCOCC3)cc2)ccc1OCc1ccccc1
  0.66	0.3
CCN(CC)c1ccc(C(=O)NN=Cc2ccc(OC)cc2OC)cc1
  0.71	-22
CN(C)c1ccc(C=NNC(=O)c2ccc(Cn3cc(Cl)cn3)cc2)cc1
  0.69	-29
CC(C)c1c(C(=O)NN=Cc2ccoc2)nnn1-c1nonc1N
  0.7	3.4
O=C(NN=Cc1cccnc1)C1CCCCC1
  0.68	-1.5
COc1cccc(C(C)=NNS(=O)(=O)c2ccc(Cl)cc2)c1
  0.64	3.3
Cc1ccc(C=NNC(=O)c2cccc(S(=O)(=O)N3CCOCC3)c2)o1
  0.66	7.7
Cc1ccc(CN2CCN(N=Cc3ccc(C)s3)CC2)cc1
  0.68	4.5
CNC(=S)NN=Cc1cccc(OCc2ccccc2F)c1
  0.68	4.7
Cc1cc(C=NNC(=O)c2ccsc2)c(C)n1-c1cnccn1
  0.66	8.5
O=[N+]([O-])c1ccc(Cl)cc1NN=Cc1ccncc1
  0.66	-1.4
CN(C)c1ccc(C=NS(=O)(=O)c2ccccc2)cc1
  0.69	-20
Cc1cc(C)c(OCC(=O)NN=Cc2ccc3c(c2)OCO3)c(C)c1
  0.66	2.2
O=[N+]([O-])c1ccc(C2CCCCC2=NO)c([N+](=O)[O-])c1 (centres undefined)
  0.53	1.5
CC(=NOCC(=O)OCC(=O)N(Cc1ccccc1)C(C)(C)C)c1ccc2c(c1)OCO2
  0.68	2.7
COc1ccccc1C(=O)NCC(=O)NN=C(C)Cc1ccccc1
  0.63	0.1
Cc1cccc(NC(=O)CCC(=O)NN=Cc2ccco2)c1
  0.7	-0.2
C(/C=C/c1ccccc1)=NNc1nc2ccccc2[nH]1
  0.59	-6.5
CC(=NNc1cccc(Cl)c1)c1ccc(-n2ccnc2)cc1
  0.67	2.4
Cc1[nH]c2ccccc2c1C=NNC(=O)c1cccc(F)c1
  0.67	4.6
CCOc1cc(C=Nn2cnnc2)ccc1OS(=O)(=O)c1ccc(C)cc1
  0.74	5.9
COc1ccc(O)c(C=NNC(=O)c2cc(=O)[nH]c3ccccc23)c1
  0.66	9.6
C=CCc1cccc(C=NNC(=O)CCC(=O)Nc2ccc(F)cc2)c1O
  0.7	-3.1
Nc1nonc1-n1nnc(C(=O)NN=Cc2cccc(F)c2)c1CN1CCCC1
  0.66	0.5
O=C(O)c1cc(NN=Cc2ccc(-c3ccc(F)cc3)o2)ccc1Cl
  0.69	-16
Cc1ccc(S(=O)(=O)Oc2ccc(C=NNC(=O)c3nn(C)cc3Cl)cc2)cc1
  0.73	0.8

(continued)
| molecule | E coli growth | UCH37 inh |
| --- | --- | --- |
| CC(CC(=O)Nc1ccc(N(C)C)cc1)=NNC(=O)c1cnccn1 | 0.68 | 4.7 |
| O=S(=O)(N=C(Sc1ccccc1)c1ccccc1)c1ccc(Cl)cc1 | 0.62 | 5.4 |
| Cc1[nH]c2ccccc2c1C=NNC(=O)c1cccs1 | 0.65 | 5.1 |
| CC(=O)N/C(=N/c1nc(C)cc(C)n1)Nc1ccc2ccccc2c1 | 0.61 | 3.2 |
| CC(=NNC(=O)Cc1ccc(F)cc1)c1ccc(F)cc1 | 0.68 | 1.0 |
| COc1ccc(N(CC(=O)NN=C(C)c2ccc(OC)c(OC)c2)S(=O)(=O)c2ccccc2)cc1 | 0.69 | -0.9 |
| Cc1ccccc1C(=O)Nc1cccc(C(=O)NN=Cc2ccc3c(c2)OCO3)c1 | 0.63 | -0.6 |
| Cc1ccc(S(=O)(=O)N2CCN(CC(=O)NN=Cc3cccnc3)CC2)cc1 | 0.68 | 5.5 |
| Cn1c(SCC(=O)NN=Cc2ccc([N+](=O)[O-])s2)nnc1-c1ccc(Cl)cc1 | 0.66 | 4.5 |
| CN(C)N=Cc1c(O)ccc2ccccc12 | 0.68 | 4.7 |
| COc1ccc(-c2cc(C(=O)NN=Cc3cccnc3)c3ccccc3n2)cc1 | 0.68 | -53 |
| S=c1[nH]nc(-c2ccccc2Cl)n1N=C/C=C/c1ccco1 | 0.62 | 14 |
| O=C(CNC(=O)c1ccccc1F)NN=Cc1cccs1 | 0.62 | 1.1 |
| CC(=NNC(=O)c1cc(-c2ccccc2C)nc2ccccc12)c1cccnc1 | 0.71 | -0.2 |
| CC(=NNC(=O)c1cc2c(s1)CCC(C)C2)c1ccc[nH]1 (centres undefined) | 0.71 | -13 |
| O=C(O)c1ccc(C=Nn2c(C3CCCCC3)n[nH]c2=S)cc1 | 0.65 | 1.5 |
| O=C(NN=C/C=C\c1ccccc1[N+](=O)[O-])c1ccco1 | 0.69 | 3.0 |
| CCOc1ccc(CNC(=S)NN=Cc2ccc(OC)c(OC)c2)cc1 | 0.68 | 1.8 |
| Cc1ccc(Oc2ncccc2C=NOCc2ccc(Cl)c(Cl)c2)cc1 | 0.72 | -3.4 |
| CCOc1ccccc1C=NNC(=O)CNC(=O)COc1ccccc1 | 0.69 | 0.9 |
| CC(=O)ON=Cc1c(Cl)n(C)c2ccccc12 | 0.65 | 2.3 |
| O=C(NN=Cc1ccc(OC(F)F)cc1OC(F)F)NC1CCCCC1 | 0.68 | 6.1 |
| COc1cc(C=NNC(=O)c2ccc(C)nc2)ccc1OC(=O)c1cccc(F)c1 | 0.67 | 6.3 |
| Cc1ccc(NCC(=O)NN=Cc2cccc(O)c2)cc1 | 0.69 | 0.5 |
| COc1ccc(CNC(=O)CC(C)=NNC(=O)Cc2ccc(OC)cc2)cc1 | 0.69 | 2.1 |
| Clc1ccc(CON=C2CCCc3nonc32)c(Cl)c1 | 0.69 | 0.6 |
| CCc1ccccc1NC(=O)CC1SC(=Nc2nccs2)N(CC)C1=O (centres undefined) | 0.71 | 2.4 |
| NC(N)=NN=Cc1ccc(OCc2ccccc2)cc1 | 0.59 | 2.9 |
| COc1cc(C=NNC(=O)c2ccncc2)ccc1OCC(=O)Nc1ccccc1 | 0.64 | 5.8 |
| Nc1nnn(CC(=O)NN=Cc2cn[nH]c2-c2ccccc2)n1 | 0.66 | 2.3 |
| O=C(NN=Cc1ccccc1Cl)c1ccc(F)cc1 | 0.72 | 5.5 |
| CC(=NNC(=S)NCc1ccccc1)c1ccc(C(C)(C)C)cc1 | 0.74 | 2.3 |
| CC(Cn1nnc([N+](=O)[O-])n1)=NNC(=O)c1ccncc1 | 0.72 | 3.2 |
| Nc1nonc1-n1nnc(C(=O)NN=Cc2ccc(OCc3cccc(Cl)c3)cc2)c1CN1CCCCC1 | 0.66 | 5.5 |
| CCOc1c(Br)cc(C=NNC(=O)c2ccccc2)cc1OC | 0.68 | 5.4 |
| COc1cc([N+](=O)[O-])cc(C=NNC(=O)C(C)Nc2ccccc2C)c1O (centres undefined) | 0.69 | 20* |
| Nc1nnc(CC(=O)NN=Cc2ccc(-c3cccc(C(=O)O)c3)o2)s1 | 0.7 | 7.5 |
| O=c1c(C=NN2CCOCC2)c(C(F)(F)F)[nH]n1-c1ccccc1 | 0.7 | 1.7 |
| CC(C)c1ccc(C=NN2CCN(c3ccccn3)CC2)cc1 | 0.71 | 0.1 |
| CC(C=NNC(=O)CNc1n[nH]c(=O)[nH]c1=O)c1ccccc1 (centres undefined) | 0.7 | 1.5 |
| CC(=O)Nc1ccc(C(C)=NNS(=O)(=O)c2ccc(C)cc2)cc1 | 0.75 | -1.0 |
| CC(=NOCON=C(C)c1ccc(F)cc1F)c1ccc(F)cc1F | 0.65 | 1.6 |
| C(=Nn1cnnc1SCc1ccccc1)c1ccco1 | 0.61 | 3.9 |
| CN(C)c1ccc(C=NNC(=O)CN(c2ccccc2Cl)S(C)(=O)=O)cc1Br | 0.68 | 8.3 |
| Cc1nn(-c2ccccc2)c(Cl)c1C=NNc1nc2ccccc2n1C | 0.66 | 2.5 |
| O=C1CCCC(=NNC(=O)c2ccc(COc3ccccc3-c3ccccc3)cc2)C1 | 0.69 | 5.2 |
| Cc1cccc(NC(=NS(=O)(=O)c2ccccc2)c2ccccc2)n1 | 0.7 | 2.7 |
| Cc1nnsc1-c1onc(C)c1C(=O)ON=Cc1ccc(Cl)cc1 | 0.63 | 7.4 |
| CCOc1cc(C=NNC(=O)CSc2nncn2C)ccc1OC(=O)c1ccc(Cl)cc1 | 0.7 | 6.8 |
| COc1ccc2c(c1)CCCC2=NNC(=O)c1ccoc1C | 0.66 | 0.3 |

More entries:
| molecule | E coli growth | UCH37 inh |
| --- | --- | --- |
| CC(=O)Nc1ccc(C(=O)NN=Cc2cccnc2)cc1 | 0.71 | 5.3 |
| CCCc1sc(NN=Cc2ccccn2)nc1-c1ccc(Br)cc1 | 0.72 | -4.1 |
| O=C(/C=C/c1ccco1)Oc1cc(Br)cc(C=NNC(=O)c2ccccc2O)c1 | 0.68 | -24 |
| Nc1nonc1-n1nnc(C(=O)NN=Cc2ccccc2Cl)c1CN1CCOCC1 | 0.71 | 1.6 |
| COCCN=c1scc(-c2cc(OC)ccc2OC)n1N=Cc1c[nH]c2ccccc12 | 0.7 | 5.1 |
| Cc1ccccc1OCC(=O)NCC(=O)NN=Cc1cccc([N+](=O)[O-])c1 | 0.68 | 1.9 |
| COC(=O)C(=O)CC(=NNc1ncnc2ccccc12)c1ccc(Cl)cc1 | 0.62 | 8.7 |
| Nc1nnnn1N=Cc1ccc(Cl)cc1 | 0.7 | -4.3 |
| CC(Oc1ccccc1)c1ccnc2nc(N=CN(C)C)nn12 (centres undefined) | 0.73 | -98 |
| CCCOc1ccc(-c2c(C(=O)NN=Cc3ccncc3)nnn2-c2nonc2N)cc1 | 0.66 | 2.9 |
| NC(=S)NN=Cc1ccc(Br)o1 | 0.68 | 6.7 |
| CC(=NO)c1ccccn1 | 0.7 | 1.4 |
| CC1CCC/C(=C\c2ccccc2)C1=NO (centres undefined) | 0.7 | 2.9 |
| NC(=NO)c1ccccc1N1CCC(Cc2ccccc2)CC1 | 0.66 | 1.0 |
| Oc1ccccc1C=NNC(=S)NC1CC2CCC1C2 (centres undefined) | 0.7 | -1.1 |
| COc1ccc(C=Nn2c(N)nc(-c3ccccc3)c2-c2ccccc2)cc1 | 0.73 | 3.0 |
| CNC(=S)NN=Cc1ccco1 | 0.72 | 4.4 |
| COc1ccc([N+](=O)[O-])cc1C=NNC(=O)c1nonc1N | 0.71 | 0.3 |
| Cc1ccc(C=NNC(=O)c2c(C)nc3ccc(Br)cn23)cc1 | 0.7 | 2.3 |
| COc1ccccc1C(=O)NCC(=O)NN=Cc1cc(Br)ccc1OCc1ccccc1 | 0.72 | 0.1 |

Gathered by group: those above containing a nitro group on carbon.
| molecule | E coli growth | UCH37 inh |
| --- | --- | --- |
| CC(=NNc1nccnc1Cl)c1ccc([N+](=O)[O-])cc1 | 0.77 | 4.2 |
| O=[N+]([O-])c1ccc(Cl)cc1NN=Cc1ccncc1 | 0.66 | -1.4 |
| O=[N+]([O-])c1ccc(C2CCCCC2=NO)c([N+](=O)[O-])c1 (centres undefined) | 0.53 | 1.5 |
| Cn1c(SCC(=O)NN=Cc2ccc([N+](=O)[O-])s2)nnc1-c1ccc(Cl)cc1 | 0.66 | 4.5 |
| O=C(NN=C/C=C\c1ccccc1[N+](=O)[O-])c1ccco1 | 0.69 | 3.0 |
| CC(Cn1nnc([N+](=O)[O-])n1)=NNC(=O)c1ccncc1 | 0.72 | 3.2 |
| COc1cc([N+](=O)[O-])cc(C=NNC(=O)C(C)Nc2ccccc2C)c1O (centres undefined) | 0.69 | 20* |
| Cc1ccccc1OCC(=O)NCC(=O)NN=Cc1cccc([N+](=O)[O-])c1 | 0.68 | 1.9 |
| COc1ccc([N+](=O)[O-])cc1C=NNC(=O)c1nonc1N | 0.71 | 0.3 |

(list continues)
| molecule | E coli growth | UCH37 inh |
| --- | --- | --- |
| Cn1c(=O)c2c(nc(NN=Cc3cccnc3)n2Cc2ccc(F)cc2)n(C)c1=O | 0.69 | -12 |
| S=c1[nH]nc(-c2ccccn2)n1N=Cc1ccc(-c2ccccc2Br)o1 | 0.64 | 7.2 |
| COc1ccc(-n2c(=C(C#N)C(=O)N3CCN(C)CC3)sc(=Cc3cccs3)c2=O)cc1 | 0.73 | -7.4 |
| CC(=NNC(=O)c1nnn(-c2nonc2N)c1-c1ccc2c(c1)OCO2)c1ccc(F)cc1 | 0.64 | -22 |
| CC(=NNc1cccc2cccnc12)c1ccc(N)cc1 | 0.67 | 5.3 |
